# TRPML1 agonist: qHTS for Agonists of the Human Mucolipin Transient Receptor Potential 1 (TRPML1); Mucolipin-1 (Homo sapiens), Q9GZU1; activation, % (test concentration not listed); TRPML1-expressing cells, Ca2+ dye fluorescence, FDSS; host cell line not named in the record; reference of the full effect not given here; hit rate 0.12% among 410,000; in the data active = activation above about 50%; inconclusive = about 30% to 50%; inactive = below about 30%; further: 0% is about no effect; the text of the record puts the active cut at 80%
# Target sequence (Q9GZU1 whole entry, looked up): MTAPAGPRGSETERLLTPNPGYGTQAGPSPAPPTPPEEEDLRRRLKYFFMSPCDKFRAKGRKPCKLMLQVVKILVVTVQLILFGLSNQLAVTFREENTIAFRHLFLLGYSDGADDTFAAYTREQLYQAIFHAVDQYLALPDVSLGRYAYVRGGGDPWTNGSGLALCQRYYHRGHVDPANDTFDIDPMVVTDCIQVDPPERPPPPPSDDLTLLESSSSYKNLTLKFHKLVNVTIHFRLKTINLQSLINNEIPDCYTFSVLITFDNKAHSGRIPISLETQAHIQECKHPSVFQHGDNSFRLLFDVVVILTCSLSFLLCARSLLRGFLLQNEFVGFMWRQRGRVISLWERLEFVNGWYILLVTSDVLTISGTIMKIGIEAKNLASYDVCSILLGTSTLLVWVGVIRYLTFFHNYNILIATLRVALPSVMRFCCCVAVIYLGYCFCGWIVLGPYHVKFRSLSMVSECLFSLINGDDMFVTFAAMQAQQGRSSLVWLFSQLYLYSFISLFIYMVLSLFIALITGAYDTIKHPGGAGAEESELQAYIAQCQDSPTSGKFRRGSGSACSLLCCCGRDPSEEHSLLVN
#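 Kinetic FDSS Ca2+ read in Tet-induced TRPML1-DL cells (ABD Ca8 dye plus quencher, 45-90 min RT loading): baseline, then compound, then 110 s agonist window; EC80 agonist 54-4 at 4uM final added afterwards for a 110 s antagonist window.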
# gsp agonist: qHTS for Agonist of gsp, the Etiologic Mutation Responsible for Fibrous Dysplasia/McCune-Albright Syndrome: qHTS | gsp mutant cells, cAMP HTRF, 30 min; control for the full effect not named in the record | Potency, µM (highest dose often 76.9 µM), without a hit: top-dose activation (cAMP increase), actives largely listed as activators | hit rate 0.13% among 340,000 | AID 624287, 2012; active = well fitted activation curve with a large enough effect; inconclusive = small, poorly fitted or top-dose-only effect, or another doubt; inactive = no such curve, though single readings can be large or run the other way; cell line not stated here;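 further: phosphodiesterase inhibitor Ro 20-1724 added with compounds to block cAMP breakdown; potency means the concentration at half of the fitted maximal effect; nearly all actives have a fitted effect of over 60% in size; about a fifth of the inactives were tested at one dose only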
#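 Cells in DMEM/10% FBS with G418 were pretreated with compounds in DMSO plus […] (300 uM stock) for 30 min at 37C. cAMP was measured by HTRF (cAMP-d2 plus anti-cAMP antibody-K) after 30 min at room temperature.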
# Menin MLL FP FL: qHTS Assay for Inhibitors Targeting the Menin-MLL Interaction in MLL Related Leukemias: Competition With Fluorescein Labeled MLL-derived Peptide. Fluorescence polarization, fluorescein-MLL peptide displacement from menin. FP activity change, % at 61.4 µM. 290,000 tested, under 10 active. AID 1766, 2009; inconclusive = falling polarisation curve, or a change in total fluorescence; inactive = total fluorescence flat and polarisation flat or rising; no compound was filed as active; the % refers to the polarisation; negative = inhibition;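 further: % of control where 0% means no effect; inhibitors lower the polarisation; unlabelled MLL peptide was the positive control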
# ClpP mod: qHTS Assay for Activators of ClpP; ATP-dependent Clp protease proteolytic subunit (Bacillus subtilis (strain 168)), P80244; Potency, µM (top dose mostly 57.5 µM), for inactives: top-dose activity change, negative = active; purified B. subtilis ClpP, FRET peptide cleavage, 20 min; hit rate 1.9% among 340,000; AID 651965, 2013; active = well fitted falling curve with a large enough effect; inconclusive = small, poorly fitted or top-dose-only effect; inactive = no such curve, though single readings can be large or run the other way; further: potency means the concentration at half of the fitted maximal effect; the source files actives as falling curves though it sought activators and does not explain the sign; nearly all actives have a fitted effect of over 65% in size; many hits overshoot -100%
# Target sequence (P80244 whole entry, looked up): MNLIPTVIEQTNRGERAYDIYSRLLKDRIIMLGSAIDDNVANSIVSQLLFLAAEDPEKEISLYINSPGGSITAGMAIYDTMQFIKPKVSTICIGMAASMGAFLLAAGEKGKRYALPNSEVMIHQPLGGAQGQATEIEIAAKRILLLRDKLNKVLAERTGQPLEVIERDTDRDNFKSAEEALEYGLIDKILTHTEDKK
#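 Buffer: 100 mM Tris/HCl pH8, 100 mM KCl, 0.05% low protease BSA, 2.5% glycerol, 0.01% Tween-20. ClpP 10 microg/mL final; 20 min RT; delta FRET normalized to ADEP and DMSO controls.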
# TRPML1 blocker: qHTS for Inhibitors of the Human Mucolipin Transient Receptor Potential 1 (TRPML1); Mucolipin-1 (Homo sapiens), Q9GZU1; hit rate 0.02% among 390,000; TRPML1-inducible cells, Ca2+ dye fluorescence, FDSS; hits give low values; inhibition of EC80 agonist-evoked calcium signal; activity change, negative = inhibition, % (concentration not given with the values); in the data active means activity change below about -50%; inconclusive means about -30% to -50%; inactive means above about -30%;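 further: stimulus is agonist 54-4 at its EC80 concentration; on the % scale 0 is the no-effect control and ±100 the full control effect; compound concentration not given in the record; the text of the record puts the active cut at -80%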
#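 TRPML1-DL cells, Tet-induced overnight (~16 h, 37 °C) at 1,500 cells/well, were loaded with Ca8 no-wash dye plus quencher for 45-90 min at room temperature. Compounds were pinned during FDSS kinetic reading; agonist 54-4 at EC80 (4 uM final) then added.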
# gsp antagonist: qHTS for Antagonists of gsp, the Etiologic Mutation Responsible for Fibrous Dysplasia/McCune-Albright Syndrome: qHTS; gsp-mutant cells, cAMP HTRF, 30 min; control for the full effect not named in the record; Potency, µM (doses to about 76.9 µM), without a hit: top-dose activity change, negative = inhibition, actives largely listed as inhibitors; hit rate 0.4% among 340,000; active = falling curve of any shape with a large fitted effect; inconclusive = falling curve, mostly with a smaller effect; inactive = flat or rising curve; cell line not stated here;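 further: intracellular cAMP measured with PDE inhibitor Ro 20-1724 present during compound exposure; potency means the concentration at half of the fitted maximal effect; on the % scale 0 is the no-effect control and ±100 the full control effect; nearly all actives have a fitted effect of over 65% in size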
#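 HTRF cAMP read-out (cAMP-d2 plus anti-cAMP antibody-K in lysis buffer, 30 min RT). Before lysis, cells are exposed to compounds with […] for 30 min at 37C in DPBS containing Ca/Mg, BSA and Tween 20.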
# * = called active by the depositor; u = inconclusive; x = no result given; [ ] = dose if it differs, or a comment.
SMILES,TRPML1 agonist,gsp agonist,Menin MLL FP FL,ClpP mod,TRPML1 blocker,gsp antagonist
CC1Sc2ccc(S(=O)(=O)N3CCC(C(=O)NCCc4ccccc4)CC3)cc2NC1=O (stereo unspecified),-0.6,-10%,x,-0.1%,4,u
C=CCSc1nc2sc3c(c2c(=O)n1CC)CCc1ccccc1-3,2.3,1%,-1.5,-1.1%,-10,-8%
CC(C)Cc1ccc(CN2CCCC(NC(=O)c3cccc(-n4cnnc4)c3)C2)cc1 (stereo unspecified),0.0,0%[15.4 µM],2.6,-2.5%,13,-7%
COc1cc(C(=O)NCC(=O)N/N=C/c2cccnc2)cc(OC)c1OC,-0.3,1%,3.3,x,22,7%
O=[N+]([O-])c1cccnc1Oc1ccc(C2SCCS2)cc1,-1.0,0%,-1.2,2.3%,0,1%
Cc1ccc(NC(=O)C2CC=CCC2C(=O)N2CCCCC2)cc1 (stereo unspecified),-1.4,-44%[inhibitor],0.9,-1.8%,2,8%
COCC(=O)Oc1c(S(=O)(=O)c2ccc(C)cc2)c(C)nn1-c1ccccc1,0.3,8%,0.4,-3.6%,29,-5%[15.4 µM]
CN(C)S(=O)(=O)n1cc(/C=C(\NC(=O)c2ccccc2F)C(=O)N2CCCC2)c2ccccc21,-0.5,2%,3.8,0.9%,19,-4%
CCOCCCNC(=O)Cn1cc2c(n1)CCCC2,0.3,-4%,-6.3,0.3%,26,1%
Cc1ccc(CCNC(=O)CCCn2c(=O)c3ccccc3n(Cc3ccccc3C#N)c2=O)cc1,-1.1,x,x,-18%,5,x
COc1ccc(S(=O)(=O)Nc2cc(Sc3ncn[nH]3)c(O)cc2C)cc1,-0.4,-12%,x,x,16,-6%
CC(/C=N/Nc1nnc2c(n1)[nH]c1ccccc12)=C\c1ccco1,3.2,6%,7.9,0.6%,6,12%
Cc1ccc(-c2cn(-c3ccc(OC(F)F)cc3)c3[n+]2CCCCC3)cc1,-0.3,13%[15.4 µM],-1.0,-2.5%,-2,7%
C=Cn1c(N2CCOCC2)nc2c1c(=O)[nH]c(=O)n2C,-0.3,11%,-0.6,-1.4%,7,9%
CCOC(=O)C1CCCCN1Cc1cccc(F)c1 (stereo unspecified),0.4,-17%,-0.5,-1.4%,9,6%
CCN(CC)c1ccc(NC(=O)CSc2nc(-c3cccs3)cc(C(F)(F)F)n2)cc1,-0.7,x,x,-3.1%,19,x
Cc1c(C(=O)Nc2ccc(F)cc2)sc2nc[nH]c(=O)c12,0.3,x,x,-11%,26,x
O=C(Nc1ccnn1C1CCN(C(=O)c2cccc(Cl)c2)CC1)C1CC1,-0.5,u,x,0.9%,-1,11%
CCOC(=O)C1=NOC(Cn2cc(C(C)=O)c(=O)[nH]c2=O)C1 (stereo unspecified),0.2,-7%,0.7,x,3,6%
O=C(O)C1CC=CC2CCN(C3CC3)C(=O)C21 (stereo unspecified),0.8,x,u,x,-15,x
Cn1c(C(=O)N2CCN(Cc3ccc4c(c3)OCO4)CC2)cc2sccc21,3.0,u,1.1,-2.8%,28,-2%
CCCCNC(=O)CN(c1cc(C(F)(F)F)ccc1Cl)S(C)(=O)=O,1.7,0%,-3.7,-4.2%,9,-10%
Fc1cccc(-c2nnn3c2nc(Cl)c2ccccc23)c1,x,19%,-4.8,4.0%,x,-9%
O=C(Nc1ccc(Cl)cc1)N(Cc1cccnc1)Cc1ccco1,-0.4,-5%,4.9,-12%,-1,2%
CCOc1ccc(Nc2cc3n(c(=O)n2)CCc2cc(OC)c(OC)cc2-3)cc1,-0.7,-22%[15.4 µM],7.4,-3.7%,-9,17%

# Carrying on:
SMILES,TRPML1 agonist,gsp agonist,Menin MLL FP FL,ClpP mod,TRPML1 blocker,gsp antagonist
COc1ccc(-c2nn(CC(=O)NCc3ccccc3)c3c2cnc2ccc(F)cc23)cc1,0.8,x,x,-22%,-1,x
CCc1cc2cc(C)ccc2nc1SCC(=O)N1CCN(C(=O)c2ccco2)CC1,2.3,10%,1.3,-2.7%,-10,-14%
O=C1CC(Nc2ccc(N3CCOCC3)cc2)C(=O)N1c1ccccc1F (stereo unspecified),-0.8,-27%,2.5,1.2%,8,-14%
CC(=O)C1=C(O)C(=O)N(c2ccc(Br)cn2)C1c1ccccc1F (stereo unspecified),-0.4,u,2.0,-14%,-6,3%
Cc1cccc(C)c1-c1ccc(CN2C(CC(C)C)C(=O)N(Cc3cn(CC4CCCCC4)nn3)CCS2(=O)=O)cc1 (stereo unspecified),-0.2,x,x,0.4%,-15,-3%
O=C(COc1ccccc1)NCc1nnc2c3ccccc3c(-c3ccccc3)nn12,2.1,u,3.3,-6.3%,7,4%
CC(=O)NNC(=O)CN1C(=O)/C(=C/c2ccccc2)SC1=S,0.4,1%,1.4,-0.3%,17,-5%
O=S(=O)(O)c1nc2ccccc2n1Cc1ccc(Cl)cc1Cl,-1.8,8%,0.2,-0.3%,-7,1%
Cc1ccc(S(=O)(=O)Nc2ccc(Cl)cc2)cc1NC(=O)Cn1cnc2c1c(=O)n(C)c(=O)n2C,0.1,14%[15.4 µM],4.6,-14%,-14,-5%
COc1ccc2[nH]c(=O)c(CN(CC3CCCO3)C(=O)Nc3ccccc3)cc2c1 (stereo unspecified),-0.6,-34%[inhibitor],-0.1,u,-6,-34%
COc1ccc(NC2CCCN(C(=O)CCc3cccc(Cl)c3)C2)cc1 (stereo unspecified),-0.8,1%,-1.9,-0.3%,-15,-4%
CCOC(=O)c1sc2nc(CC(C)C)c3c(c2c1N)CCC3,-0.1,-8%[15.4 µM],0.8,186%,1,-15%
O=S(=O)(Nc1ccc2c(c1)CCC2)c1cccs1,1.4,2%,-2.1,-2.1%,-7,u
CC(c1ccco1)N(C(=O)c1ccccc1NS(=O)(=O)c1cc([N+](=O)[O-])ccc1Cl)c1ccccn1 (stereo unspecified),1.1,3%,1.2,-4.6%,-4,u
CC(C)(O)C#Cc1ccc(C(=O)N2CCCC2C(=O)O)s1 (stereo unspecified),-0.7,u,-0.9,2.7%,5,7%
O=C(CCNC(=O)c1ccc([N+](=O)[O-])cc1)Nc1ccc(S(=O)(=O)N2CCOCC2)cc1,-0.3,-1%,x,1.3%,-1,15%
COc1ccc(Oc2cc(NN3CCCCC3)c([N+](=O)[O-])cc2[N+](=O)[O-])cc1OC,-0.4,3%,2.2,0.4%,12,-16%
COc1ccc(-c2csc3nc(C)nc(N4CCN(C(C)=O)CC4)c23)cc1OC,-0.3,4%[15.4 µM],2.5,x,-2,x
Cn1cc(C(=O)NC2C3CC4CC(C3)CC2C4)cn1 (stereo unspecified),0.5,-1%,5.8,-1.9%,18,7%
Cc1ccnc(NC(=O)C2CCCN(S(=O)(=O)c3cnc[nH]3)C2)c1 (stereo unspecified),0.2,13%,1.4,-1.1%,-11,1%
CCC1=C(C(=O)OC)C(c2cc(OC)ccc2OC)C(C#N)=C(N)O1 (stereo unspecified),-0.6,0%,0.5,0.7%,0,-13%
O=C(O)c1cc(Cl)ccc1NC(=O)C1CCCO1 (stereo unspecified),0.8,9%,3.8,u,-2,-1%
Cn1c(=O)cc(OCC(=O)NCc2cccnc2)c2ccccc21,-0.6,-1%,2.6,-5.2%,0,-2%
CCCC(=O)Nc1ccc(Oc2ccc(NC(=O)CCC)cc2)cc1,-1.0,-30%[inhibitor],1.6,1.8%,3,11%
CCCCN1C(=O)CCC(C(=O)O)C1c1ccccc1 (stereo unspecified),-0.5,-6%,5.7,-1.5%,23,2%

# Next section.
SMILES,TRPML1 agonist,gsp agonist,Menin MLL FP FL,ClpP mod,TRPML1 blocker,gsp antagonist
Cc1ccc2sc(N(CCCN(C)C)C(=O)c3ccc(S(=O)(=O)N(C)Cc4ccccc4)cc3)nc2c1C,0.6,11%[15.4 µM],x,-9.5%,6,3%
Nc1ccc2c(c1)Oc1ccccc1C=C2,0.2,-8%[15.4 µM],-1.3,-0.2%,-2,14%
COc1ccc(C(=O)Nc2nnc(-c3ccc(F)cc3)s2)c(OC)c1,0.8,19%,-1.0,x,-5,20%
C/C=C/c1ccc(OCC(=O)Nc2cc(Cl)ccc2-n2cncn2)c(OC)c1,-0.3,-15%,x,-1.0%,4,-9%
COc1cc(C2C(C(=O)Nc3ccc(F)cc3)=C(C)Nc3nc(CCCO)nn32)cc(OC)c1OC (stereo unspecified),0.7,-22%,1.7,-0.9%,18,3%
O=C(NCCN1CCN(c2ccccc2)CC1)Nc1cccc(Cl)c1,0.6,2%[15.4 µM],2.1,1.7%,-11,-1%
O=C(NC1CCCCC1)c1ccccc1NC(=O)C1CC1,-0.5,13%,-2.1,-14%,-10,6%
Cn1c2ccccc2c2cc(/C=C(\NC(=O)c3ccccc3)C(=O)NCC(=O)O)ccc21,1.8,2%,u,-4.4%,-6,6%
O=c1[nH]c(SCc2ccc(Br)cc2)nc2c1CCCC2,2.6,x,x,0.1%,12,x
CCCNC(=S)N1CCC(C(=O)c2ccc(Cl)cc2)CC1,-0.1,-22%,-8.7,-1.4%,6,-20%
Cc1cccnc1NC(=O)c1cccc(S(=O)(=O)N2CCCc3ccccc32)c1,-0.7,1%[15.4 µM],x,-5.2%,-3,-1%
Cc1ccc2c(c1)N(C(=O)N1CCC(C(=O)NC3CCCCCC3)CC1)CCO2,-0.4,x,x,-4.5%,5,x
CCCCCn1c(CCNC(=O)c2cccc(C)c2)nc2ccccc21,0.4,x,x,-1.8%,9,x
O=C(CN1CCN(Cc2ccccc2)CC1)Nc1cccc(S(=O)(=O)N2CCCCCC2)c1,-0.8,-13%[15.4 µM],-8.7,x,-16,-7%
CCOc1ccccc1-n1c(COc2ccc(C)cc2)nnc1SCC(N)=O,0.3,2%,-7.8,-0.8%,-8,-6%
Cc1cccc(OCCSc2nc3ccc(NC(=O)COc4ccccc4C)cc3s2)c1,-0.1,x,x,-2.0%,-13,x
CCCCNC(=S)NNC(=O)CCn1cc(C)cn1,-0.1,-36%[inhibitor],2.8,0.9%,0,13%

# Arranged by value in TRPML1 blocker (smallest number first): some entries from above
molecule,TRPML1 blocker
O=C(NC1CCCCC1)c1ccccc1NC(=O)C1CC1,-10
Cn1c2ccccc2c2cc(/C=C(\NC(=O)c3ccccc3)C(=O)NCC(=O)O)ccc21,-6
CCCCNC(=S)NNC(=O)CCn1cc(C)cn1,0
